AF4-AF9 inh = inhibitors of AF4 peptide binding to AF9, primary screen, biochemical, AlphaScreen, biotin-AF4 peptide, FLAG-AF9, single point; 350,000 compounds, 0.47% hits; AID 651704, 2012; inhibition, % at 10 µM; Protein AF-9 (Homo sapiens), P42568;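 active means every replicate reaching a set inhibition limit, whatever the replicate mean, cut at about 25% in these data; inconclusive means mean inhibition reaches that limit but some replicates miss it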;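 further: 0% = plate neutral control median and 100% = total signal loss; the record names both 10 and 1 µM as test concentration; the first replicate is given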
Target sequence (P42568 whole entry, looked up): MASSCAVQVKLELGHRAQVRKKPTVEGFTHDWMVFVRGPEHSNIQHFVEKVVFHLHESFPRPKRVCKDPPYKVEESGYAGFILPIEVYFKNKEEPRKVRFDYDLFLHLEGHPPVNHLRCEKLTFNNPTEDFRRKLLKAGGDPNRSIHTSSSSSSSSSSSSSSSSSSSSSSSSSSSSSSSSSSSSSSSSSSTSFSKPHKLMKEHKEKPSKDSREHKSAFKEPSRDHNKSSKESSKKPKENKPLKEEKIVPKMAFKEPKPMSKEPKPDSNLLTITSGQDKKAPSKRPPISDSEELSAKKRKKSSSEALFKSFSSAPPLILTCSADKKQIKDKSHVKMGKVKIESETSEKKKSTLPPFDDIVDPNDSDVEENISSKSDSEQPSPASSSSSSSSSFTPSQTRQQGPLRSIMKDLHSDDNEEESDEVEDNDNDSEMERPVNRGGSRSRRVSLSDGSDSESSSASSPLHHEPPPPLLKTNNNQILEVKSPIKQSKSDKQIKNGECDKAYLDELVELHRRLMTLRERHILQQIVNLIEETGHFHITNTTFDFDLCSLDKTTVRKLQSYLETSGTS
Bfl-1 A1 inh = caspase 3/7 activation in MEF A1-2A-BIM cells, primary screen, A1 inhibitor project, cell-based, luminescence, HTS | Caspase-Glo 3/7 luminescence, 3 h; percent of clofoctol response, vehicle zero | caspase activation, % (no concentration beside the values) | 330,000 compounds, 0.066% hits;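 active means over half of replicate activation scores above 10%, or exactly half above 10 with the replicate mean above 10; inconclusive means replicate mean below 10 yet half the replicates above 10; inactive means over half of replicates below 10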;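 further: wells of about 30 µL received 50 nL stock; many hits fall short of the cut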
Calb FLC = C. albicans growth inhibition with fluconazole, primary screen, CaCi-2 strain, Alamar Blue fluorescence | growth inhibition, % (concentration not given with the values) | 300,000 compounds, 0.57% hits | C. albicans CaCi-2 (fluconazole-resistant clinical isolate) + fluconazole, 48 h;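 active means most replicates above 75%; inconclusive means exactly half above 75%; inactive means most below 75%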;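 further: all wells also contain fluconazole at 8 µg/ml as a sub-toxic cotreatment; 0% = median of DMSO wells and 100% = median of geldanamycin control wells; wells of about 8 µL received 7.5 nL stock; the first replicate is given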
LANA-H2A inh = blockers of LANA interaction with H2A/H2B – biochemical, FP readout, HTS, primary screen; inhibition, % (concentration not given with the values); cell-free LANA-H2A/H2B peptide, fluorescence polarization; 320,000 compounds, 0.6% hits; Protein LANA1 (Human herpesvirus 8 type P (isolate GK18)), Q9QR71; in the data active means inhibition mostly above about 10%, no sharp cut-off; inactive means mostly below about 6.7%;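 further: stock transfer was 7.5 nL into about 10 µL; 0% = median of vehicle wells and 100% = median of positive control wells; one replicate is shown; the record names a cut of 25% in any replicate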
RanGTP-Imp inh = inhibitors of RanGTP-importin-beta interaction, primary screen, biochemical, FRET, CFP-Ran, YFP-importin-beta, homogeneous; Ran GTPase (GTP-bound) - importin-beta complex; cell-free CFP-Ran/YFP-importin-beta FRET ratio; inhibition, % (concentration not given with the values); 300,000 compounds, 1.1% hits;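 active means most replicates above 15%; inconclusive means exactly half above 15%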;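 further: 0% = DMSO wells and 100% = Ran loaded with GDP instead of GTP; wells of about 40 µL received 100 nL stock; the first replicate is given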
Vif A3G = inhibitors of Vif binding to APOBEC3G peptide, primary screen, biochemical, TR-FRET, GST-Vif 1-94, biotin-A3G peptide, dose response retest (AID 1117319). Virion infectivity factor (Human immunodeficiency virus type 1 group M subtype B (isolate …. TR-FRET GST-Vif / biotin-A3G peptide binding; higher % means a stronger effect; test concentration not given here; strong numbers were not always called active. inhibition, %; hits with a dose series show IC50 in µM. 260,000 compounds, 0.57% hits;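 active means above the screen mean plus three standard deviations and confirmed in dose response; inconclusive means results disagree or hit not tested in dose response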;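 further: Vif residues 1-94 fused to GST binding biotinylated APOBEC3G peptide 110-148; 0% = full assay without inhibitor and 100% = GST in place of GST-Vif; retest series ran down from 100 µM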
Beta apoptosis = inhibitors of cytokine-induced beta cell apoptosis, primary screen, luminescence; INS-1E cytokine-induced death, ATP luminescence, 48 h; percent of positive-control rescue, neutral wells zero; protection from apoptosis, % (concentration not given with the values); 300,000 compounds, 0.8% hits; AID 435005, 2010;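 active means all replicates at 75% or more, or half of them and the mean; inconclusive means half reach 75% but not the mean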;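 further: 0% = cytokine-treated negative control wells and 100% = positive control rescue; higher means more ATP so stronger rescue from cytokine killing; wells of about 40 µL received 100 nL stock; the first replicate is given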
T cruzi repl = inhibitors of intracellular T. cruzi growth, primary screen, luminescence, NIH3T3 host cells; T. cruzi beta-gal in NIH3T3, 90 h; inhibition, % (no concentration beside the values); 300,000 compounds, 1.4% hits; AID 1885, 2009;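 active means mean inhibition across valid replicates above about 55%, limit read from the data; inconclusive means mean below that limit but half or more replicates reach it; inactive means mean below it, under half of replicates reach it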;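 further: signal also drops with host cell toxicity which is not excluded here; 0% = plate median of DMSO wells and 100% = zero luminescence signal; higher percent means less beta-gal luminescence so fewer parasites; stock transfer was 50 nL into about 50 µL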
Starred values were filed as active, the others as inactive. Compounds were not picked by outcome; 4.3% or so of the library scored in one or more.

Screening O=C(NN=C1CCCCC1)c1ccccc1OCc1ccc(F)cc1 returned AF4-AF9 inh 0.0, Bfl-1 A1 inh 0.1, Calb FLC -12, LANA-H2A inh 1.8, RanGTP-Imp inh -4.8, Vif A3G 2%, Beta apoptosis -3 and T cruzi repl 20.
For CCN(CC)C(=O)C1CCCN(c2ccc([N+](=O)[O-])cc2/C=N/NC(=O)c2ccc([N+](=O)[O-])cc2)C1 (stereo not drawn) the results were Bfl-1 A1 inh 0.8, Calb FLC 7, LANA-H2A inh -0.5, RanGTP-Imp inh 3.3, Vif A3G 3%, Beta apoptosis 0 and T cruzi repl 2.
CCOc1ccc2[nH]c(=O)c(CN(Cc3ccco3)C(=O)c3ccc(Br)cc3)cc2c1 was read as Calb FLC 7, RanGTP-Imp inh 2.7, Vif A3G 68% and T cruzi repl 17.
For Cc1ccc2nc(-c3ccc(SCC(=O)Nc4cc(C)on4)nc3)[nH]c2c1 the results were Bfl-1 A1 inh 0.4, Calb FLC 2, LANA-H2A inh 3.4, RanGTP-Imp inh 0.3, Vif A3G -15%, Beta apoptosis 5 and T cruzi repl -21.
For COC(=O)c1ccc(C(=O)OC)c(NC(=O)CSc2cccc[n+]2[O-])c1 the results were Bfl-1 A1 inh 0.5, Calb FLC 113*, LANA-H2A inh -2.8, RanGTP-Imp inh -1.7, Vif A3G 8%, Beta apoptosis 13 and T cruzi repl 17.
For Cc1nnc(SCC(=O)NC2CC2)s1 the results were AF4-AF9 inh -1.3, Bfl-1 A1 inh 0.7, Calb FLC -3, LANA-H2A inh -0.6, RanGTP-Imp inh -2.0, Beta apoptosis 1 and T cruzi repl -4.
Cc1cccc(NC(=O)CN2CCOCC2)c1C was read as AF4-AF9 inh 0.8, Bfl-1 A1 inh 1.1, Calb FLC -2, LANA-H2A inh -3.7, RanGTP-Imp inh 6.2, Beta apoptosis -3 and T cruzi repl -4.
For Cc1cccc(NS(=O)(=O)c2cccc(C(=O)NCc3ccccc3CN3CCOCC3)c2)c1 the results were AF4-AF9 inh 2.0, Bfl-1 A1 inh -0.1, LANA-H2A inh 0.3, Vif A3G 5% and Beta apoptosis 1.
For OCC1(Cc2cccc(Cl)c2)CCCN(Cc2ccc3cc(F)ccc3n2)C1 (stereo not drawn) the results were AF4-AF9 inh -9.5, Bfl-1 A1 inh 0.6, Calb FLC 23, LANA-H2A inh -4.9, RanGTP-Imp inh 24* and T cruzi repl 25.
Screening CSc1nc(N(C)CCO)c2sc3nc(-c4ccco4)c4c(c3c2n1)CCC4 returned Bfl-1 A1 inh -1.1, Calb FLC 14, LANA-H2A inh -3.4, RanGTP-Imp inh -1.9, Vif A3G inconclusive, Beta apoptosis 2 and T cruzi repl -25.
`CCc1nc2ccc(C(=O)Nc3nnc(C)s3)cc2nc1CC` gave AF4-AF9 inh 0.1, Bfl-1 A1 inh -0.6, Calb FLC -2, LANA-H2A inh 0.4, RanGTP-Imp inh -3.3, Vif A3G -1% and T cruzi repl -17.
For CCOC(=O)/C(C)=N/NC(=O)c1cccc([N+](=O)[O-])c1 the results were AF4-AF9 inh 1.1, Bfl-1 A1 inh 0.3, Calb FLC 5, LANA-H2A inh -4.9, RanGTP-Imp inh 4.4, Vif A3G -2%, Beta apoptosis 1 and T cruzi repl -1.
`CCN(CC)S(=O)(=O)c1ccc(NC(=O)COC(=O)c2ccc(NC(=O)CC#N)cc2)cc1` gave AF4-AF9 inh -0.4, Bfl-1 A1 inh -0.5, Calb FLC 8, LANA-H2A inh 4.8, RanGTP-Imp inh -0.6, Vif A3G -1%, Beta apoptosis -6 and T cruzi repl -8.
`CN1CCC=C(C(=O)N2c3ccccc3Sc3ccc(Cl)cc32)C1` gave AF4-AF9 inh 9.3, Bfl-1 A1 inh 0.5, Calb FLC 6, LANA-H2A inh 0.7, RanGTP-Imp inh 0.6, Vif A3G -12% and T cruzi repl 41.
O=C1CN(C(=O)CSc2nnc3ccccn23)c2ccccc2N1 was read as AF4-AF9 inh 0.7, Bfl-1 A1 inh 1.8, Calb FLC -3, LANA-H2A inh -1.7, RanGTP-Imp inh -1.4, Beta apoptosis -3 and T cruzi repl -16.
COc1cc(OC)c(C(=O)CCC(=O)O)cc1OC was read as Bfl-1 A1 inh 0.0, Calb FLC 18, LANA-H2A inh -0.8, RanGTP-Imp inh -0.8, Beta apoptosis 7 and T cruzi repl -2.
For COc1ccc(-c2nnc3ccc(SCC(=O)Nc4nc5ccc(C)cc5s4)nn23)cc1OC the results were Bfl-1 A1 inh 0.2, Calb FLC -3, LANA-H2A inh 2.4, RanGTP-Imp inh inconclusive and T cruzi repl 17.
For CCCC(=O)N=c1sc2cccc(F)c2n1C the results were AF4-AF9 inh 1.6, Bfl-1 A1 inh -0.7, Calb FLC -1, LANA-H2A inh -1.0, RanGTP-Imp inh inconclusive, Vif A3G 31%, Beta apoptosis -2 and T cruzi repl -6.
`COCCNC(=S)N(CCc1c(C)[nH]c2ccc(Cl)cc12)Cc1cccs1` gave AF4-AF9 inh 4.4, Bfl-1 A1 inh 1.0, Calb FLC 23, LANA-H2A inh 2.4, RanGTP-Imp inh inconclusive, Vif A3G -13%, Beta apoptosis 0 and T cruzi repl 52.
Cn1c(SCC(=O)NNC(=O)c2ccccc2O)nnc1-c1ccccc1 was read as AF4-AF9 inh -11, Bfl-1 A1 inh 0.4, Calb FLC 42, LANA-H2A inh -6.4, RanGTP-Imp inh -3.2, Beta apoptosis 1 and T cruzi repl 0.
COc1cc(-c2cc(C(F)(F)F)n3ncc(C(=O)O)c3n2)cc(OC)c1OC was read as Bfl-1 A1 inh 0.9, Calb FLC 9, LANA-H2A inh -1.1, RanGTP-Imp inh -2.0, Vif A3G 0%, Beta apoptosis 0 and T cruzi repl -5.
Screening Cc1cc(N2CCN(c3ccc(F)cc3)CC2)n2ncnc2n1 returned AF4-AF9 inh -2.1, Bfl-1 A1 inh -0.4, Calb FLC -3, LANA-H2A inh 4.8, RanGTP-Imp inh -0.5, Vif A3G inconclusive, Beta apoptosis -10 and T cruzi repl 2.
Cc1ccc(NCCC(=O)c2cccs2)cc1C was read as AF4-AF9 inh 16, Bfl-1 A1 inh -4.2, Calb FLC 2, LANA-H2A inh -2.6, RanGTP-Imp inh 1.9, Vif A3G 6%, Beta apoptosis -7 and T cruzi repl 5.
Screening Cc1ccccc1C(=O)NC(C)C1CC2CCC1C2 (stereo not drawn) returned AF4-AF9 inh -5.6, Bfl-1 A1 inh -0.1, Calb FLC 3, LANA-H2A inh 2.9, RanGTP-Imp inh -1.4, Beta apoptosis -8 and T cruzi repl 2.
COc1cc(/C=N/N2CCN(Cc3ccc(Cl)cc3)CC2)cc(Br)c1O was read as AF4-AF9 inh 23, Bfl-1 A1 inh 0.2, Calb FLC 1, LANA-H2A inh 1.9, RanGTP-Imp inh 3.9, Beta apoptosis -4 and T cruzi repl 5.
CCN1CCN(c2ccc(S(=O)(=O)N3CCOCC3)cc2NC(=O)c2ccccc2SC)CC1 was read as AF4-AF9 inh -17, Bfl-1 A1 inh inconclusive, Calb FLC 0, LANA-H2A inh -2.0, RanGTP-Imp inh 5.0, Vif A3G 5%, Beta apoptosis -5 and T cruzi repl 14.
For O=C(CCc1ccccc1)Nc1cc2c3c(c1)CC(=O)N3CCC2 the results were AF4-AF9 inh -6.2, Bfl-1 A1 inh -2.2, Calb FLC -1, LANA-H2A inh -1.7, RanGTP-Imp inh -3.2, Vif A3G -4%, Beta apoptosis 0 and T cruzi repl 1.
`C(=C\c1ccccc1)/CNn1cnnc1` gave AF4-AF9 inh -81, Bfl-1 A1 inh 0.0, Calb FLC -17, LANA-H2A inh -6.5, RanGTP-Imp inh -2.7, Vif A3G 23%, Beta apoptosis -7 and T cruzi repl -11.
Screening COc1ccc(NC(=O)C(=S)NC2CCCCC2)cc1 returned AF4-AF9 inh -0.1, Bfl-1 A1 inh -1.5, Calb FLC -10, LANA-H2A inh -1.6, RanGTP-Imp inh 2.5, Beta apoptosis -5 and T cruzi repl -2.
CCc1ccc(S(=O)(=O)Nc2ccccn2)cc1 was read as AF4-AF9 inh -0.4, Bfl-1 A1 inh -0.3, Calb FLC 2, LANA-H2A inh -3.1, RanGTP-Imp inh -0.2, Vif A3G inconclusive, Beta apoptosis -4 and T cruzi repl -10.
For O=C(C1CCN(S(=O)(=O)c2cccc3nsnc23)CC1)N1CCCCC1 the results were AF4-AF9 inh -0.3, Bfl-1 A1 inh -0.1, Calb FLC 0, LANA-H2A inh 9.3, RanGTP-Imp inh -3.1, Vif A3G -6%, Beta apoptosis -2 and T cruzi repl -28.
Screening Nc1nonc1-c1noc(COc2ccccc2Cl)n1 returned Bfl-1 A1 inh 0.7, Calb FLC 8, LANA-H2A inh 3.2, RanGTP-Imp inh 1.6, Vif A3G -4%, Beta apoptosis -1 and T cruzi repl -2.
Screening O=C(O)c1ccccc1C(=O)c1cccs1 returned Bfl-1 A1 inh 0.9, Calb FLC inconclusive, LANA-H2A inh 5.0, RanGTP-Imp inh -1.7, Vif A3G -9%, Beta apoptosis 0 and T cruzi repl -6.
O=C(Cc1ccccc1)Nc1cc(Cl)ccc1Sc1ccccc1 was read as Bfl-1 A1 inh 0.0, Calb FLC 3, LANA-H2A inh -8.4, RanGTP-Imp inh -0.4, Beta apoptosis -4 and T cruzi repl 15.
`CCCCS/C(N)=N/N=C/c1cc(C)ccc1O` gave Bfl-1 A1 inh 1.5, Calb FLC -2, LANA-H2A inh 0.1, RanGTP-Imp inh 1.6, Vif A3G -4%, Beta apoptosis -8 and T cruzi repl 1.
Screening CCc1cccc(NC(=O)CCNS(=O)(=O)c2ccc3[nH]c(=O)oc3c2)c1 returned AF4-AF9 inh 1.8, Bfl-1 A1 inh 1.2, Calb FLC 0, LANA-H2A inh 0.6, RanGTP-Imp inh 2.4, Vif A3G 9%, Beta apoptosis -1 and T cruzi repl -23.
Screening Cc1c(NS(=O)(=O)CC23CCC(CC2=O)C3(C)C)c(=O)n(-c2ccccc2)n1C (stereo not drawn) returned Bfl-1 A1 inh -1.3, Calb FLC -8, LANA-H2A inh 4.2, RanGTP-Imp inh -1.2, Vif A3G 3% and T cruzi repl -9.
`Cc1[nH]c(=S)sc1Cc1ccc(F)cc1` gave Bfl-1 A1 inh -0.2, Calb FLC -6, LANA-H2A inh 3.1, RanGTP-Imp inh -1.1, Vif A3G 4%, Beta apoptosis 1 and T cruzi repl 6.
